Compound activity (PubChem BioAssay)
D2 ag: agonists of human D2 dopamine receptor (beta-arrestin). DiscoveRx PathHunter D2 beta-arrestin, luminescence, 90 min; 100% = 57 uM dopamine signal. activation, % (concentration not given with the values). P14416. actives 0.084% (n = 360,000). AID 624465; in the data active = activation above about 40%; inconclusive = about 15% to 40%; inactive = below about 15%; further: compound concentration not given in the record; the text of the record calls up to 30% inactive
Target sequence (P14416 whole entry, looked up): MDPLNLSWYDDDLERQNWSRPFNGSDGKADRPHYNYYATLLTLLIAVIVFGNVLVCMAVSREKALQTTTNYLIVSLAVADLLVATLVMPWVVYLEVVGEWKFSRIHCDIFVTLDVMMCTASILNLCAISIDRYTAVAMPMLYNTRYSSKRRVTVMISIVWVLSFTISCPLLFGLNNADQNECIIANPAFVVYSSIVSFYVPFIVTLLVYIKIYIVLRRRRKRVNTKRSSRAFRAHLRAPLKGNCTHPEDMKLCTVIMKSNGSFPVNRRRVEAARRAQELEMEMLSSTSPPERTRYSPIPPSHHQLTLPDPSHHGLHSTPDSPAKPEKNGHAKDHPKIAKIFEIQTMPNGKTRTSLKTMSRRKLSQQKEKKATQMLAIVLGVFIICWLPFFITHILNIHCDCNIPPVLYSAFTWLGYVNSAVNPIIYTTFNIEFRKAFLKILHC
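DiscoveRx PathHunter D2 beta-arrestin cells (2,100/well) attached overnight, then compound-stimulated 90 min at 37 C in HBSS/10 mM HEPES/0.1% Tween-20 buffer; beta-galactosidase complementation read by luminescence after 1 h at ambient temperature. Dopamine 57 uM final (EC100) as control.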
TRPML1 ag: activates the human TRPML1 channel; TRPML1-expressing cells, Ca2+ dye fluorescence, FDSS; host cell line not named in the record; reference of the full effect not given here; activation, % (test concentration not listed); actives 0.12% (n = 410,000); in the data active = activation above about 50%; inconclusive = about 30% to 50%; inactive = below about 30%; further: 0% is about no effect; the text of the record puts the active cut at 80%
Target sequence (Q9GZU1 whole entry, looked up): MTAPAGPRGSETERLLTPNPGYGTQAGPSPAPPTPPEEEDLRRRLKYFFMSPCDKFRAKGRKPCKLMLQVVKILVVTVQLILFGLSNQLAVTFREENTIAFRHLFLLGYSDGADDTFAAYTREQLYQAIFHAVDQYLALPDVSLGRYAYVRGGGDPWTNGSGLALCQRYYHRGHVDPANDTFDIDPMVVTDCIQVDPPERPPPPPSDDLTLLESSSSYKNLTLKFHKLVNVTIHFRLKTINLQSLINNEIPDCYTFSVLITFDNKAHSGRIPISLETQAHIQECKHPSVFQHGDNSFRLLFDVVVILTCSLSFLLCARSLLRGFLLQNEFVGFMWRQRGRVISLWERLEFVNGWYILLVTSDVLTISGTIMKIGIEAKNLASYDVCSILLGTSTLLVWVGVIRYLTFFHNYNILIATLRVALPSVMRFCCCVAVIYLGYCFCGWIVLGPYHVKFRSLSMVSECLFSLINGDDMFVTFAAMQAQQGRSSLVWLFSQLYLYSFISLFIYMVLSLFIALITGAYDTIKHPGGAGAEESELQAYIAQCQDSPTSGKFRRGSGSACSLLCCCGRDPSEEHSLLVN
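Agonist activity was taken from a 110 s kinetic Ca2+ dye read on the FDSS after pinning compounds onto TRPML1-DL cells. The cells were seeded at 1,500/well with Tet inducer, incubated about 16 h, then dye-loaded at room temperature.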
Six1-Eya2 blk: inhibitors of human Six1/Eya2 interaction | Q15475+O00167 | AlphaScreen GST-Six1/His-Eya2 binding, biochemical; active compounds read low; control for the full effect not named in the record | activity change, % (concentration not given with the values) | actives 0.56% (n = 360,000) | AID 651725; in the data active = activity change below about -65%; inconclusive = about -30% to -65%; inactive = above about -30%; further: on the % scale 0 is the no-effect control and ±100 the full control effect
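GST-Six1 + His-Eya2 (5X stock: 250/500 nM); Tris pH 8.0, 300 mM NaCl, 0.05% BSA, 0.02% Tween 20; GSH donor/Ni acceptor beads; 1 h 37 °C dark; AlphaScreen readout.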
PINK1 modulator: PINK1 expression modulation; PINK1 immunofluorescence, high-content cytometry, 24 h; Potency, µM (titrated, usually from 76.6 µM), for inactives: at the highest dose activation (PINK1 increase), most hits filed as activators; actives 0.2% (n = 410,000); AID 624263; active = well fitted activation curve with a large enough effect; inconclusive = small, poorly fitted or top-dose-only effect; inactive = flat fitted curve, though single readings scatter; cell line not stated here;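 further: potency means the concentration at half of the fitted maximal effect; % of control where 0% means no effect; nearly all actives have a fitted effect of over 65% in size; a mitochondrial uncoupler was the plate control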
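Stable cell line, 250 cells/well, 12 h attachment; compounds pinned at 5 concentrations, 24 h; CCCP control. Fixed with nuclear dye, primary antibodies 12 h at 10 degrees C, secondary plus cell stain; laser-scanning cytometer read.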
D2 potentiator: potentiates the human D2 dopamine receptor allosterically; AID 624464; DiscoveRx D2 beta-arrestin cells, luminescence, 90 min; 100% = 57 uM dopamine signal; P14416; potentiation, % (test concentration not listed); actives 0.23% (n = 360,000); active = potentiation of 50% or more; inconclusive = 30% to 50%; inactive = 30% or less;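 further: compound concentration not given in the record; tested on top of an EC20 dose of dopamine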
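D2 cells co-treated with compound plus 50 nM dopamine (EC20) for 90 min at 37 deg C to detect potentiation. Beta-arrestin recruitment was read as enzyme-fragment luminescence after 1 h at ambient temperature. Full response was set by 57 uM dopamine.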
CtBP-E1A inh: inhibitors of CtBP/E1A interaction; AlphaScreen GST-E1A/His-CtBP binding, 1536-well; active compounds read low; control for the full effect not named in the record; activity change, % (test concentration not listed); actives 0.49% (n = 340,000); in the data active means activity change below about -65%; inconclusive means about -30% to -65%; inactive means above about -30%; further: on the % scale 0 is the no-effect control and ±100 the full control effect
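Homogeneous bead-based format: GST-tagged E1A captured on glutathione donor beads, His-tagged CtBP on nickel acceptor beads; compounds precede bead addition by 2 h at 37 °C.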
Numbers without * were called inactive; ? = inconclusive; . = no result given; & = joins results of further samples; [ ] = another dose, or the depositor's remark.

molecule,D2 ag,PINK1 modulator,D2 potentiator,TRPML1 ag,CtBP-E1A inh,Six1-Eya2 blk
COCCC(=O)N1CCC(Oc2ccc(C(=O)N3CCCC(OC)C3)cc2)CC1 (stereo unspecified),0.5,0.7%,-3.3,0.2,-7.3,6.3
COc1ccccc1-c1csc(C(NC(C)=O)c2ccccc2)n1 (stereo unspecified),-5.6,1.2%,-4.0,-1.3,23.7,16.3
COc1ccc(-c2cc(NC=O)c3ncc(-c4ccc(C(C)=O)cc4)n3c2)cc1OC,?,1.0%,14.8,-0.2,-10.4,-12.3
O=C(Nc1ccc(S(=O)(=O)N2CCOCC2)cc1)c1cc(-c2ccccc2O)n[nH]1,-1.3,3.7%,-6.3,0.7,-13.1,-3.6
Cc1ccc(C)c(S(=O)(=O)NNC(=O)Nc2ccccc2Cl)c1,-8.1,-0.3%,-11.0,0.4,-14.9,0.0
Cc1cc2nsnc2c(S(=O)(=O)NCC(=O)O)c1C,-1.2,.,-12.1,-0.2,9.1,1.9
CCCn1cnc2sc(CC)cc2c1=O,-3.6,6.1%,-9.7,-0.3,5.1,12.5
Cc1ccc(N(C(=O)CNC(=O)c2ccco2)C(C(=O)NC2CCCC2)c2ccncc2)cc1F (stereo unspecified),-4.1,0.3%,-1.4,0.1,8.5,-0.3
CCN1C[C@@H]2[C@@H]3C(=O)N(C)C(=O)[C@@H]3[C@](CC)(C1=O)N2C(=O)c1ccc(C(C)(C)C)cc1,-1.1,0.5%,-6.0,-0.6,6.8,7.4
O=[N+]([O-])c1cccc(-c2ccc(CN3CCCCC3)o2)c1,-7.9,2.7%,-19.0,0.3,1.5,-16.6
Cn1c(SCC(=O)N2CCCc3ccccc32)nnc1-c1c[nH]c2ccccc12,-0.2,0.7%,-10.4,-0.5,-6.5,-16.9
OCC1(Cc2cccc(Cl)c2)CCCN(Cc2ccc3cc(F)ccc3n2)C1 (stereo unspecified),3.2,25.5%,-20.7,-0.7,-0.5,-3.0
COc1cccc(C2=NOC(C(=O)NCCN3CCOCC3)C2)c1 (stereo unspecified),-2.3,0.8%[38.3 µM],-4.7,1.2,8.7,-1.4
CC1Cc2ccccc2N1C(=S)NC(=O)c1ccc(Cl)cc1Cl (stereo unspecified),-6.0,-0.5%,-19.7,-0.7,-21.5,-13.2
COc1cc(O)c(C(C)=O)cc1OC,-1.1,-2.3%,-10.1,3.3,-1.0,2.6
CC[C@H](C)Cc1cn([C@@H](CCCN=C(NC(=O)OC(C)(C)C)NC(=O)OC(C)(C)C)C(=O)NCCCCCCCCCCC(=O)N2CCN(C(=O)OC(C)(C)C)CC2)nn1,8.3,-1.0%,-6.2,-0.5,-4.6,-13.7
O=C(COC(=O)/C=C/c1cccc(C(F)(F)F)c1)NC(=O)NC1CCCC1,-3.3,7.1%,14.1,1.0,5.6,6.4
CCN(CC)C(=O)CN(c1ccc(Cl)cc1)S(=O)(=O)c1ccccc1,-2.5,-0.6%,-7.8,1.2,4.6,25.5
CCCCn1c(SCc2cccnc2)nc2c1c(=O)n(C)c(=O)n2C,8.1,?,-12.2,0.5,3.0,-2.7
Cc1ccc(CSc2nc3ncccc3[nH]2)cc1,-2.1,-1.6%,-4.2,-1.4,0.7,-3.9

Going on with the list.
molecule,D2 ag,PINK1 modulator,D2 potentiator,TRPML1 ag,CtBP-E1A inh,Six1-Eya2 blk
O=C(COC(=O)CCc1ccc(S(=O)(=O)N2CCCCC2)cc1)Nc1cccc2ccccc12,-3.8,-4.0%,2.3,1.5,4.6,-2.0
COCCNc1oc(-c2ccco2)nc1S(=O)(=O)c1ccccc1,6.1,2.3%,-9.7,0.1,-4.6,-2.6
COc1ccc(S(=O)(=O)NCC(c2cccs2)N2CCc3ccccc3C2)cc1 (stereo unspecified),-2.6,-0.9%,15.4,-0.1,-0.8,-10.6
O=C(Nc1cccc(S(=O)(=O)c2cccc(NC(=O)C3CC3)c2)c1)C1CC1,2.1,6.6%[38.3 µM],12.3,0.9,8.2,2.2
CCCNC(=O)c1ccc2c(=O)c(O)c(-c3ccc(C)cc3)[nH]c2c1,-0.5,3.9%,-2.2,2.6,0.2,-0.5
O=C(Cn1c(=O)oc2ccccc21)NCC1COc2ccccc2O1 (stereo unspecified),-4.0,-1.2%,-9.9,0.8,7.0,2.6
Cc1ccc([C@H]2N[C@]3(CCCN(Cc4ccccc4)C3=O)[C@H]3C(=O)N(C)C(=O)[C@@H]23)cc1,-8.9,0.7%,3.7,-0.3,3.7,-7.0
COc1cc(C(=O)OC(C)C(=O)NC(=O)NC2CCCCC2)ccc1OC(F)F (stereo unspecified),4.4,0.9%,-4.8,0.9,.,1.6
CCOC(=O)C1=C(CSCC(=O)OC)NC(=O)NC1c1cc(C)ccc1C (stereo unspecified),-0.6,8.6%[38.3 µM],-8.4,1.6,7.2,0.0
Cc1ccccc1CCNC(=O)C1CCC(=O)N(C2CCCCCC2)C1 (stereo unspecified),-4.6,-0.9%,-14.1,0.9,-1.7,-5.7
CC(C)c1ccc(NC(=O)CSc2n[nH]c(=O)n2C2CC2)cc1,-5.6,1.6%,-24.5,1.1,2.0,-5.6
CCN(CC(=O)Nc1cc(C)on1)CC(=O)Nc1ccccc1C(F)(F)F,-3.2,0.4%,0.7,2.5,-6.7,7.8
COc1ccc(C(CNC(=O)Nc2ccccc2)N2CCN(C)CC2)cc1 (stereo unspecified),0.7,3.1%,-6.9,-0.2,.,4.4
CCOC(=O)C1(CCOc2ccccc2)CCN(S(=O)(=O)N(C)C)CC1,7.6,0.5%,8.6,0.6,7.0,7.6
Fc1ccccc1N1CCN(Cc2nc(-c3ccccc3)no2)CC1,3.2,2.3%[38.3 µM],-10.9,2.4,20.1,16.3
COC(=O)c1ccc(-c2sc3nc(N4CCOCC4)c4c(c3c2N)CCCC4)o1,6.4,7.3%,10.4,6.0,11.3,15.9
Cc1ccc2nc(N3CCOCC3)c(C=O)cc2c1,2.8,0.9%,4.8,-0.1,5.1,-1.0
COC(=O)c1sc2ccccc2c1-n1cccc1C(=O)C(=O)Nc1ccc(Cl)cc1,-10.1,3.3%,-46.0,1.7,-17.6,-13.6
Cc1ccccc1-n1c(=O)c2ccccc2n2cnnc12,-1.4,.,-10.7,0.0,7.5,0.7
CCC(c1ccc(O)c(O)c1)C(CC)c1ccc(O)c(O)c1 (stereo unspecified),59.1*,18.2%,15.8,-0.8,-10.2,-8.0

Other compounds
molecule,D2 ag,PINK1 modulator,D2 potentiator,TRPML1 ag,CtBP-E1A inh,Six1-Eya2 blk
O=C1CCCC2=C1C(c1cccc(O)c1)c1c(ccc3ncccc13)N2 (stereo unspecified),2.4,6.5%,-2.1,-0.2,-15.5,?
Cn1nc(-c2ccccc2)c(N2CCCCC2)cc1=O,-3.4,0.6%,-5.5,2.3,-5.5,0.8
CCN(CC)S(=O)(=O)c1cccc(NC(=O)COc2ccc(Cl)cc2Br)c1,-2.3,14.2%,-17.6,1.8,-2.2,4.7
O=C(COc1ccc2c(-c3ccccc3)cc(=O)oc2c1)NCCN1CCOCC1,-1.7,-0.8%,-12.2,-0.5,0.0,1.1
COc1cc(OC)c(OC)cc1CN1CCCC(C(=O)c2ccc3c(c2)OCO3)C1 (stereo unspecified),-4.3,0.4%,-7.5,0.7,-7.9,-11.2
COc1ccc(C(CC(=O)N2CCCC2)c2c(OC)cc(OC)c3c(-c4ccccc4)cc(=O)oc23)cc1 (stereo unspecified),0.1,4.0%,-21.8,0.9&-0.4,-0.4,-14.0
O=C(Oc1ccccc1F)c1ccc2c(=O)n3c(nc2c1)CCC3,-1.2,0.8%,5.7,1.5,-7.5,-17.8
O=S(=O)(Nc1ccncc1)c1cc(Cl)ccc1Cl,-3.0,1.0%,-7.8,0.4,0.2,-1.1
CCOC(=O)N1CCC(NC(=O)c2ccc3nc(N4CCOCC4)sc3c2)CC1,-3.4,2.7%,-0.2,1.3,-0.9,6.8
O=C(CCN1CCN(c2ccccc2)CC1)NNC(=O)Cc1c(F)cccc1Cl,6.5,0.5%,-39.0,0.7,7.3,-0.4
COc1cc(OC)cc(C(=O)Nc2ccc3nc4n(c(=O)c3c2)CCCCC4)c1,5.8,1.3%&1.8%,7.1,-1.4&1.2,-23.0,-11.6
Cn1c(N2CCCC2)nc2c1c(=O)n(Cc1ccc(Cl)cc1)c(=O)n2C,-1.8,-4.6%,-2.6,0.6,-17.1,?
CCN(CC)CCN(C(=O)c1ccc2c(c1)CCCC2)c1nc2ccc(C)cc2s1,3.8,28.2µM*,-24.9,-0.1,1.1,-17.5
COC(=O)c1ccc(SC2CCCCC2)c([N+](=O)[O-])c1,0.3,-0.3%,2.4,1.8,-20.5,-22.4
CC1CCC(NC(=O)C2CC(O)CN2S(=O)(=O)c2ccc([N+](=O)[O-])cc2)CC1 (stereo unspecified),12.9,0.0%,2.7,-0.3,.,8.2
CCCN(CCC)Cc1cc(=O)oc2cc(C)cc(C)c12,-2.4,4.6%,-4.9,-0.1,15.9,15.4
CNc1ncc(-c2nnnn2-c2ccccc2)c(-c2ccccc2)n1,-3.9,6.0%,-21.6,-0.3,.,6.0
Clc1ccc(Cn2ccc3ccccc32)cn1,-0.6,-0.4%&3.6%,4.2,-1.1&0.1,0.5,7.8
CC(NC(=O)c1cccs1)C(c1cccs1)N1CCN(Cc2ccccc2)CC1 (stereo unspecified),-0.6,1.1%[38.3 µM],-29.6,-0.6,-9.9,-7.8
C=CCN(CCNP(=O)(OCC)OCC)CP(=O)(OCC)OCC,-4.7,-0.2%,-11.6,0.5,-4.0,-2.5

New compounds follow
molecule,D2 ag,PINK1 modulator,D2 potentiator,TRPML1 ag,CtBP-E1A inh,Six1-Eya2 blk
N#CCn1cnc2c(oc3ccccc32)c1=O,-1.4,0.5%,-9.7,-0.1,.,-0.8
CCCCn1nnc(NC(=O)COc2cc(C)ccc2C(C)C)n1,-2.0,0.4%,-15.8,1.9,7.8,6.1
Cc1ccc(CN2C3=NC(=O)CN3c3ccccc32)cc1,-3.7,-1.1%,-3.6,0.8,1.8,1.6
CCCOc1cccc(OCC(=O)Nc2nc3ccccc3[nH]2)c1,-2.4,7.8%,-10.2,2.3,-3.1,-4.5
Cc1ccc(CN2CCSc3ccc(C(=O)NC4CCCC4)cc32)cc1,-2.2,6.0%,-7.9,-0.1,2.2,1.3
Cc1ccc(/C=C/C(=O)OC(C)C(=O)NC2CCCCC2C)o1 (stereo unspecified),-5.5,5.4%,-13.1,-1.0,3.5,0.7
Cc1ccc(C(=O)N[C@H](C(=O)NC2CCCCCCC2)C(C)C)cc1,-0.9,2.2%,0.0,-0.2,5.4,4.9
O=C(c1ccco1)N1CCN(S(=O)(=O)c2ccc(S(=O)(=O)NC3CCCCC3)cc2)CC1,0.1,0.8%[38.3 µM],1.3,2.0,14.4,-2.1
COc1ccc(CC(NC(C)=O)C(=O)NC2CCN(C(=O)Nc3ccccc3C)CC2)cc1OC (stereo unspecified),0.4,-0.2%,0.5,1.1,4.8,3.5
O=C(NCc1ccccc1)N1CCN(c2ccc(F)cc2)CC1,-2.0,-1.5%,-2.9,-1.2,-1.0,-1.6
